# Yeast UUG start: alters start codon recognition fidelity in yeast | activity score, % at 18.7 µM | S. cerevisiae UUG-firefly luciferase reporter, luminescence/redox ratio | hit rate 0.13% among 350,000;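 active = replicate mean at a twofold rise or more, about +100% in these data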;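 note: firefly luciferase made from a UUG start codon reports start codon fidelity; reporter light over untreated wells divided by growth signal over untreated wells; some hits fall short of that in this replicate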
# Rce1 inh: inhibitors of yeast Ras-converting enzyme; Q03530; hit rate 0.27% among 290,000; calls only; yeast membranes, quenched prenylated peptide cleavage fluorescence;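 active = fall in fluorescence gain of 50% or more versus controls, with final raw signal at or below 3038400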;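 note: plate controls were neutral control wells for no effect and wells lacking membranes for full effect; tested at 10 µM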
# Target sequence (Q03530 whole entry, looked up): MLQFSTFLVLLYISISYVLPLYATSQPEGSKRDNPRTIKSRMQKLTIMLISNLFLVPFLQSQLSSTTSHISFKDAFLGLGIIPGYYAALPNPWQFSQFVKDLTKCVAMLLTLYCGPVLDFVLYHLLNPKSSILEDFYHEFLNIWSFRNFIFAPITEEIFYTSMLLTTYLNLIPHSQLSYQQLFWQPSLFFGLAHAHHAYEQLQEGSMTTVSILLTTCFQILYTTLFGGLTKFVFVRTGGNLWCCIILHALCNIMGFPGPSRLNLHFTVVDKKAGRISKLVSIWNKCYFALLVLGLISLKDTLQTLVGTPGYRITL
# MT1-MMP act inh: blocks activation of human MT1-MMP | HT1080 RFP-PRO-GFP cells, GFP/RFP ratio fluorescence, overnight; percent of plate control window, DMSO zero | GFP/RFP ratio change, % at 20 µM | hit rate 0.061% among 360,000;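 active = GFP/RFP ratio change of at least 30% with cell ATP level not reduced by more than half and red fluorescence within 50% of control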; note: strong numbers were not always called active
#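 Material: RFP-PRO-GFP reporter HT1080 cells. Dosing: single-point 20 µM compound, 1% DMSO. Controls: DMSO and RFP-L50D-GFP cell wells. Timing: cells overnight before dosing, compound overnight, 37 °C, 5% CO2. Measure: GFP/RFP fluorescence ratio.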
# CSC inhib: cancer stem cell inhibition | cancer stem cell-like cells viability, luminescence | inhibition, % at 7.5 µM | hit rate 1.1% among 300,000 | AID 2717;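 active = mean at 75% or more and at least half the replicates too; tested in HMLE shEcad cells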;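 note: 0% = median of negative and 100% = median of positive control wells; the first replicate is given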
# HIV Env fusion: HIV envelope-mediated fusion inhibition | HeLa-JRFL Env/CEM21 cell fusion, luciferase | inhibition, % at 12.3 µM | hit rate 1.1% among 360,000 | AID 651610;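 active = mean replicate inhibition score of at least 50 and every replicate individually at or above 50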;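 note: 0% = plate neutral controls and 100% = maraviroc near 300 nM; one replicate is shown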
# PABP FP inh: blocks human PABP binding to poly(A) RNA | P11940 | fluorescence polarization | inhibition, % at 35 µM | hit rate 1% among 290,000 | AID 2014;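 active = 50% or more with normal probe brightness, or confirmed in later tests; about a fifth of its hits are not listed in these tables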;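 note: calls also rest on retests at 20 µM and on dose response follow-up; controls were probe without protein and protein plus probe with vehicle; some compounds called inactive have numbers as strong as hits; many hits fall short of the cut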
# eIF4H FP inh: inhibitors of RNA binding by human eIF4H. AID 2012. inhibition, % at 35 µM. hit rate 0.94% among 290,000. eIF4H fluorescence polarization binding assay;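 active = 50% or more with normal probe brightness, or confirmed in later tests; about a fifth of its hits are not listed in these tables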;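 note: calls also rest on retests at 20 µM and on dose response follow-up; 0% = protein and probe with vehicle and 100% = probe without protein; strong numbers were not always called active; many hits fall short of the cut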
# MT1-MMP act inh RFP: further read-out of MT1-MMP act inh, marked with its call; RFP signal change, %; measured here: RFP expression control read;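 0 = vehicle wells; hits needed this value within 50% of zero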
# An asterisk follows results filed as active; i = inactive; . = no result given.
no.	canonical_smiles	Yeast UUG start	Rce1 inh	MT1-MMP act inh	MT1-MMP act inh RFP	CSC inhib	HIV Env fusion	PABP FP inh	eIF4H FP inh
1	N#Cc1cnc(NOCc2ccc(Cl)cc2)nc1	.	i	2.2	4.2	-1.9	2.2	2.8	3.6
2	O=C(Nc1ccc(NC(=S)NC(=O)c2ccccc2Cl)cc1)c1cccc(Cl)c1	-8.0	.	3.7	1.3	79.4*	.	.	.
3	Cc1[nH]c2ccc(-c3nnc(SCC(=O)c4ccccc4F)o3)cc2c1C	-16.9	i	2.4	-0.3	14.6	-24.0	-10.8	-6.2
4	CCN(CC)CCCNC(=O)C(C)n1nc(C)c2sc3ccccc3c2c1=O (stereo unspecified)	.	i	-0.2	0.2	.	-28.4	-4.4	6.5
5	Cc1ccc(Nc2nc(CSc3n[nH]c(N)n3)cs2)cc1	-19.1	i	3.0	-2.3	-6.9	-54.2	11.0	-1.7
6	COc1ccc(C(=O)Nc2cc(C)cc(C)c2)cc1S(=O)(=O)N1CCOCC1	9.5	i	4.2	-2.6	-10.5	-4.7	-4.0	1.3
7	CCOC(=O)c1c(-c2ccc(OC)cc2)csc1NC(=O)CSc1nnc(C)c(=O)[nH]1	.	i	-1.6	-4.4	-3.8	10.4	14.7	0.2
8	C/C=C/C=N/Nc1nc(C)cc(=O)[nH]1	.	.	-3.2	-0.6	-13.5	1.9	-3.4	-2.9

# The listing continues.
no.	canonical_smiles	Yeast UUG start	Rce1 inh	MT1-MMP act inh	MT1-MMP act inh RFP	CSC inhib	HIV Env fusion	PABP FP inh	eIF4H FP inh
9	O=C(COc1ccc(Cl)cc1Br)NCC(c1ccco1)N1CCCC1 (stereo unspecified)	-2.9	.	3.5	-5.2	.	-7.9	.	.
10	O=C(CSc1nnc2sc3ccccc3n12)NCc1ccco1	-11.6	i	0.3	1.6	14.7	-72.4	8.7	-3.8
11	COc1ccc(Cc2c(C3CCCCC3)nc3ccc(Br)cn23)c(C)c1	41.5	.	-2.8	2.2	.	10.5	.	.
12	COc1cccc(-c2nc(CS(=O)(=O)CC(=O)NCCc3ccccc3)c(C)o2)c1	-18.2	i	-2.9	-4.6	-10.1	-81.0	7.7	4.3
13	O=C(NCCCN1CCOCC1)c1nn2c(C(F)(F)F)cc(-c3ccco3)nc2c1Cl	-9.4	i	-0.8	-0.4	-13.7	-1.6	-4.4	10.2
14	COc1ccc(-c2csc(NC(=O)CS(=O)(=O)c3ccccc3)n2)c(OC)c1	-8.9	.	-3.7	-3.5	.	-13.0	.	.
15	NS(=O)(=O)c1ccc(NC(=O)COC(=O)CCC2CCCCC2)cc1	-9.1	i	2.8	4.0	-27.1	20.8	-1.3	4.8
16	CCOc1ccc(-n2c(=O)cc(N3CCN(c4ccccc4)CC3)[nH]c2=O)cc1	.	i	-1.6	-4.5	-2.9	.	10.5	8.8

# New compounds follow
no.	canonical_smiles	Yeast UUG start	Rce1 inh	MT1-MMP act inh	MT1-MMP act inh RFP	CSC inhib	HIV Env fusion	PABP FP inh	eIF4H FP inh
17	CCc1ccc2[nH]c(=O)c(CN(CCN(C)C)C(=O)Nc3ccccc3OC)cc2c1	-2.4	i	3.4	2.0	4.8	.	-5.3	-6.9
18	Cc1csc2ncc(C(=O)Nc3ccc(C(F)(F)F)cc3)c(=O)n12	-37.9	i	3.0	-11.4	-17.6	17.7	-5.3	1.2
19	CSc1ccc(CN(C)C(=O)CNC(=O)c2sc3ccccc3c2Cl)cc1	-11.6	i	1.3	-5.6	-1.3	-7.7	3.1	-7.2
20	O=C(Oc1cc2oc(=O)c3c(c2cc1Cl)CCCC3)c1ccco1	-11.4	i	-0.9	1.8	-6.1	-17.2	-6.4	-2.5
21	COc1ccc(-n2c(C)nnc2SCC(=O)NC2CC2)cc1	-23.8	i	2.0	-0.3	.	-11.4	-8.4	-4.2
22	Cc1cc(NC(=O)CSc2nncn2N)no1	.	i	1.7	-6.8	-7.2	3.9	10.7	-7.6
23	COc1ccc(OC)c(N2CC(O)(c3ccccc3)[N+]3=C2SCCC3)c1 (stereo unspecified)	.	i	0.6	7.3	-6.3	-40.7	-0.1	1.9
24	CCOc1ccc(C2=CC(c3ccccc3)n3ncnc3N2)cc1 (stereo unspecified)	-17.4	i	-29.6	1.1	9.8	.	.	.

# Next structures
no.	canonical_smiles	Yeast UUG start	Rce1 inh	MT1-MMP act inh	MT1-MMP act inh RFP	CSC inhib	HIV Env fusion	PABP FP inh	eIF4H FP inh
25	O=C(C[n+]1ccncc1)c1ccccc1	-17.1	i	-7.7	-3.3	-8.7	1.7	9.4	5.1
26	COc1cccc(CN2CC(C(=O)NCCCCc3ccccn3)CCC2=O)c1 (stereo unspecified)	5.0	i	-1.6	2.3	-3.6	-11.3	-3.9	-5.4
27	Cc1ccc(C)n1-c1ccccc1N1CCCCC1	.	i	-1.1	1.1	.	8.1	8.5	5.9
28	COn1c(=O)c(-c2cccc(Br)c2)[n+]([O-])c2ccccc21	-3.7	i	0.5	0.8	-17.0	8.5	7.9	-8.3
29	CCNc1nc(NCC)n2c(SCC(=O)Nc3ccc(F)cc3[N+](=O)[O-])nnc2n1	-23.8	i	-0.3	-0.7	-13.2	21.6	-4.5	1.7
30	O=C(CN1C(=O)c2ccccc2C1=O)OCC(=O)N1CCN(c2ccccc2)CC1	0.7	i	-3.6	-2.8	-0.9	-22.8	.	.
31	CCC(C)NC(=O)c1cn(CCOC)c(=O)c2c1c1ccccc1n2C (stereo unspecified)	-9.8	i	0.5	1.7	-5.9	-2.4	-5.5	-7.7
32	Cc1cc(CNC(=O)C2(C(F)(F)F)C/C(=C\CCO)CCCO2)nn1C (stereo unspecified)	-15.6	i	-1.6	-0.2	.	2.5	.	.

# (continued)
no.	canonical_smiles	Yeast UUG start	Rce1 inh	MT1-MMP act inh	MT1-MMP act inh RFP	CSC inhib	HIV Env fusion	PABP FP inh	eIF4H FP inh
33	Cc1ccc(C(=O)Nc2ccccc2C(=O)N2CCCC(C)C2)cc1 (stereo unspecified)	-7.3	i	0.2	1.0	-2.6	-8.3	-1.0	4.3
34	Clc1cccc(CSc2nccn2-c2ccccc2)c1	-20.9	i	1.7	0.5	14.3	.	-9.0	2.4
35	CC1CN(c2ncnc3c2cnn3-c2ccc(Cl)cc2)CC(C)O1 (stereo unspecified)	-9.9	i	1.2	-4.6	26.1	-321.4	2.4	1.8
36	COc1ccc(CNC(=O)[C@H](C)NC(=O)C2CC(=O)N(c3ccc4c(c3)OCO4)C2)cc1 (stereo partly specified)	-10.1	i	-4.8	-2.5	-7.4	2.0	-3.1	-4.5
37	Cc1ccc(Nc2nc(CSc3nnnn3-c3ccccc3)cs2)cc1	7.4	i	-5.3	-4.2	6.4	-1.8	6.8	3.5
38	O=C(O)C1C2C=CC(C2)C1C(=O)Nc1ccc2c(c1)OCCO2 (stereo unspecified)	-33.5	i	-0.3	-0.4	.	.	26.0	-2.5
39	CCOc1ccc(N(CC(=O)Nc2c(C)cccc2C)S(=O)(=O)c2c(C)[nH]c(=O)[nH]c2=O)cc1	2.8	i	-1.5	0.6	-20.3	0.3	7.5	-9.4
40	CCNC(=O)CSc1nc2sccc2c(=O)n1-c1ccccc1	-30.4	i	-5.3	-3.8	-7.6	1.8	4.6	1.4

# (more compounds)
no.	canonical_smiles	Yeast UUG start	Rce1 inh	MT1-MMP act inh	MT1-MMP act inh RFP	CSC inhib	HIV Env fusion	PABP FP inh	eIF4H FP inh
41	Cc1c(C)n(Cc2ccc(F)cc2)c2ccc(C(=O)NCCN3CCOCC3)cc12	-14.0	i	2.6	-0.5	40.8	6.1	2.9	-11.0
42	O=C(Nc1ccccc1F)C1CCN(S(=O)(=O)c2cccc3nonc23)CC1	-12.8	i	-1.1	-1.5	-11.0	12.3	14.7	2.3
43	Cc1ccccc1-n1ncc2c1CC(C)(C)CC2NC(=O)c1snnc1C (stereo unspecified)	1.8	i	1.2	-0.2	-9.3	-6.1	-5.6	6.2
44	CO/N=C/C(C#N)c1ncc(C(F)(F)F)cc1Cl (stereo unspecified)	-0.4	i	6.3	-0.6	3.9	.	-1.0	1.0
45	COC(=O)c1ccc(NC(=O)C2CCCN2C(=O)Nc2cccc(C(C)=O)c2)cc1 (stereo unspecified)	8.5	i	0.3	1.8	.	-15.7	-7.0	1.6
46	Cc1cccc(C)c1OCC(=O)N=Nc1c(O)[nH]c2ccc(Br)cc12	-11.7	i	-3.1	-0.4	20.0	-44.9	2.6	-0.6
47	CN1CCN(C(=O)C23CCC(C)(c4nc5ccccc5nc42)C3(C)C)CC1 (stereo unspecified)	-15.2	i	-6.9	3.2	-4.3	-106.6	-11.7	-4.6
48	Cc1c(C(=O)N(C)CCc2cnn(C)c2)oc2c(F)cccc12	-9.9	i	2.3	3.5	-5.9	11.5	-7.5	-3.2

# Following part.
no.	canonical_smiles	Yeast UUG start	Rce1 inh	MT1-MMP act inh	MT1-MMP act inh RFP	CSC inhib	HIV Env fusion	PABP FP inh	eIF4H FP inh
49	CC1Cc2ccccc2N1C(=O)COC(=O)c1ccc(Cl)c(S(=O)(=O)N2CCOCC2)c1 (stereo unspecified)	-0.2	.	1.0	-0.8	-23.0	3.6	.	.
50	O=C(COc1cccc(C(F)(F)F)c1)N1CCN(c2ccc(O)cc2)CC1	13.8	i	-0.8	-19.5	78.0*	50.3	-9.5	1.7
51	CCOc1ccc(S(=O)(=O)N2CCOCC2)cc1NC(=O)CSCC(=O)Nc1cccc(C)c1	9.0	i	-3.2	-2.1	2.7	-10.7	2.8	0.8
52	CN(NC(=O)c1ccccc1)c1nc2ccccc2nc1C(F)(F)F	.	i	-6.4	-11.9	51.4	.	11.5	3.7
53	CCOC(=O)N1CCN(c2cc3[nH]c(=S)[nH]c3cc2F)CC1	-23.8	i	8.2	-1.0	-12.9	-31.1	-8.4	0.7
54	N#Cc1c(N)nc2c(c1N)CC(COc1ccccc1)O2 (stereo unspecified)	-13.0	i	6.4	4.0	-14.0	.	8.3	-9.3
55	Cc1ccc(S(=O)(=O)NCC2(c3ccccc3)CCN(C)CC2)cc1	1.0	i	0.3	3.6	.	9.2	-2.9	-8.9
56	COc1ccc(C(=O)NC(CC(=O)O)c2cc([N+](=O)[O-])ccc2Cl)cc1 (stereo unspecified)	-14.0	i	0.2	0.1	-1.3	-8.9	13.6	2.7

# Compound profiles, as listed above. Order of values: Yeast UUG start	Rce1 inh	MT1-MMP act inh	MT1-MMP act inh RFP	CSC inhib	HIV Env fusion	PABP FP inh	eIF4H FP inh
# Shown for O=C(O)C1C2C=CC(C2)C1C(=O)Nc1ccc2c(c1)OCCO2 (stereo unspecified) : -33.5	i	-0.3	-0.4	.	.	26.0	-2.5
# Shown for Cc1cc(CNC(=O)C2(C(F)(F)F)C/C(=C\CCO)CCCO2)nn1C (stereo unspecified) : -15.6	i	-1.6	-0.2	.	2.5	.	.
# Shown for CN(NC(=O)c1ccccc1)c1nc2ccccc2nc1C(F)(F)F : .	i	-6.4	-11.9	51.4	.	11.5	3.7
# Shown for Cc1ccc(Nc2nc(CSc3nnnn3-c3ccccc3)cs2)cc1 : 7.4	i	-5.3	-4.2	6.4	-1.8	6.8	3.5
# Shown for CCOc1ccc(C2=CC(c3ccccc3)n3ncnc3N2)cc1 (stereo unspecified) : -17.4	i	-29.6	1.1	9.8	.	.	.

# 4 compounds drawn at random from those above, as already listed:
no.	canonical_smiles	Yeast UUG start	Rce1 inh	MT1-MMP act inh	MT1-MMP act inh RFP	CSC inhib	HIV Env fusion	PABP FP inh	eIF4H FP inh
51	CCOc1ccc(S(=O)(=O)N2CCOCC2)cc1NC(=O)CSCC(=O)Nc1cccc(C)c1	9.0	i	-3.2	-2.1	2.7	-10.7	2.8	0.8
54	N#Cc1c(N)nc2c(c1N)CC(COc1ccccc1)O2 (stereo unspecified)	-13.0	i	6.4	4.0	-14.0	.	8.3	-9.3
50	O=C(COc1cccc(C(F)(F)F)c1)N1CCN(c2ccc(O)cc2)CC1	13.8	i	-0.8	-19.5	78.0*	50.3	-9.5	1.7
49	CC1Cc2ccccc2N1C(=O)COC(=O)c1ccc(Cl)c(S(=O)(=O)N2CCOCC2)c1 (stereo unspecified)	-0.2	.	1.0	-0.8	-23.0	3.6	.	.
